Screening data from PubChem BioAssay.
KCNQ2 pot = enhances the rat KCNQ2 potassium channel; B-score at 10 µM; AID 2239; O88943; 310,000 tested, 0.54% active; CHO-K1 KCNQ2, FluxOR thallium flux fluorescence; active compounds read high;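 active = fluorescence ratio B-score at least 3 SD of library B-scores, with initial fluorescence B-score within 3 SD, cut at about 5.3 in these data; same plate scores as AID 2156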;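 note: B-score of peak minus minimum over baseline fluorescence ratio after K+ and Tl+ stimulus; positive B-score means potentiation of KCNQ2 with more thallium influx and brighter signal; only the inactives scoring about 0 or higher are listed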
Target sequence (O88943 whole entry, looked up): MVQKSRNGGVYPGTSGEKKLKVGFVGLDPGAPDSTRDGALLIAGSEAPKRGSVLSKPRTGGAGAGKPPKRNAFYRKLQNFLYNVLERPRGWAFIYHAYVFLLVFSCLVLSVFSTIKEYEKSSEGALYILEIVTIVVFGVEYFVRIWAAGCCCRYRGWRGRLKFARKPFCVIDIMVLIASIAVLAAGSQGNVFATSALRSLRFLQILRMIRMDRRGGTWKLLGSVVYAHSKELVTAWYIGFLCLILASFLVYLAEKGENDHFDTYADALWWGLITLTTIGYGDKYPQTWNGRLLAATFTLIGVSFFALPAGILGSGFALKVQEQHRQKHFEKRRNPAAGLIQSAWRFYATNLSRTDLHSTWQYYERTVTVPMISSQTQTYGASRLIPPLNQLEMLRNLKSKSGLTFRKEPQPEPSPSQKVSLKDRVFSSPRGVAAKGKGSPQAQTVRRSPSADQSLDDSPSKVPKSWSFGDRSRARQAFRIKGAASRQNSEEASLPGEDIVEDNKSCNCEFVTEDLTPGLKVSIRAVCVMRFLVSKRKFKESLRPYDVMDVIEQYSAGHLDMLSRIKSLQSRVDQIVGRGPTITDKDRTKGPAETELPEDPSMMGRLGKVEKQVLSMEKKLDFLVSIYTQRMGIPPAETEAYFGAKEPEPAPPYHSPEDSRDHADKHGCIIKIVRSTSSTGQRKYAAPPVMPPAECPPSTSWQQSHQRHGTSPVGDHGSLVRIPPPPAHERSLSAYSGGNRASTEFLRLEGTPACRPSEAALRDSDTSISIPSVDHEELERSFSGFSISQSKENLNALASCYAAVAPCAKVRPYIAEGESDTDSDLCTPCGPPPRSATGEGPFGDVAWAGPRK
KCNQ2 pot baseline = recorded beside KCNQ2 pot, whose call it bears; B-score; compound at 10 µM; measured here: initial fluorescence intensity artifact check;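 brightness before thallium and not channel activity; 0 = typical well and far values either way flag optical interference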
* hit, by the source's call.

#	compound	KCNQ2 pot	KCNQ2 pot baseline
1	Cc1cc(C)c2nc(SCC(=O)N(C)C3CCS(=O)(=O)C3)cc(C)c2c1 (stereo unspecified)	0.1	-1.7
2	Cc1ccc(C(=O)NNC(=O)c2ccncc2)cc1C	0.38	-3.4
3	OCCNc1nc2ccccc2n1CC(O)c1ccccc1 (stereo unspecified)	1.1	1.1
4	Cc1ccccc1NC(=O)NC1(C(=O)NCC2CCCO2)CCCCC1 (stereo unspecified)	0.65	1.3
5	CN(C)c1ccc(C2N(c3ccc(F)cc3)C(=O)C3CCCN32)cc1 (stereo unspecified)	0.95	-1.8
6	CC(=O)Nc1nc(-c2ccccc2)nc(-c2ccccc2OC(C)=O)n1	1.5	-0.34
7	Cc1cc(C)n2nc(C(F)(F)F)c(-c3ccccc3)c2n1	0.99	-1.8
8	CC(=O)N1N=C(c2ccncc2)OC12CCCCC2	0.17	-0.83
9	O=C(COC(=O)CNC(=O)c1ccc(Cl)c([N+](=O)[O-])c1)NC(=O)c1ccccc1	0.98	1.8
10	O=C(CNC(=O)c1ccccc1F)NCCOc1ccccc1Cl	0.14	-1.2
11	CCOc1ccccc1-c1nnc(SCC(=O)NC2CC3CCC2C3)n1CC (stereo unspecified)	1.6	-0.12
12	CCOc1ccc(C(CC(=O)O)n2cnnn2)cc1 (stereo unspecified)	0.44	-1.6
13	Cc1cc2oc(=O)cc(C)c2c(=O)o1	1.1	-0.88
14	CCCN(C(=O)c1ccc(N2CCCC2=O)cc1)c1c(N)n(Cc2ccccc2)c(=O)[nH]c1=O	0.7	0.05
15	O=[N+]([O-])c1ccc(N2CCN(S(=O)(=O)c3ccc4ccccc4c3)CC2)cc1NCC1CCCO1 (stereo unspecified)	1.6	2.7
16	CSCC[C@H](NC(=O)[C@H]1N2C(=O)c3ccccc3C2SC1(C)C)C(=O)NCc1ccncc1 (stereo partly specified)	1.3	-0.71
17	CCN(CC)S(=O)(=O)c1ccc(C(=O)NCc2n[nH]c(=S)n2Cc2ccccc2)cc1	0.4	1.4
18	CCN(CC)S(=O)(=O)c1ccc(NC(=O)COC(=O)c2ccc(Br)o2)cc1	0.03	-0.33
19	CCOC(=O)c1cc(CC)sc1/N=C/C1=C(O)CCCC1=O	0.05	0.08
20	O=C(Cn1cnc2ccccc21)OCC(=O)N1CCc2ccccc2C1	0.02	-1.3
21	Cc1cc(/C=N/NC(=O)COc2cccc3cccnc23)c(C)n1-c1ccc(O)cc1	0.84	-0.33
22	O=S(=O)(c1ccccc1)c1nc(-c2ccccc2F)oc1NCc1cccnc1	0.04	0
23	CN(C)CCCNC(=O)c1ccc(CN(c2ccccc2)S(C)(=O)=O)cc1	0.88	1
24	FC(F)C(F)(F)C1=CC(c2cccs2)=NCCN1	1.6	-0.7
25	CC(=O)N1CCc2cc(S(=O)(=O)NC(C(=O)NC3CCCc4ccccc43)C(C)C)ccc21 (stereo unspecified)	1.1	0.01
26	COc1cc(/C=C2/SC(=O)N(CC(=O)N3CCCC3)C2=O)ccc1Oc1ccc([N+](=O)[O-])cn1	0.02	1.6
27	O=C1CCC(=O)N1c1ccc(CSc2nc3ccccc3[nH]2)cc1	1.4	-1.1
28	Cc1nn(-c2ccccc2)c2nc(Cl)c(C(=O)O)cc12	0.02	-0.43
29	CC(C)(C)c1ccc(S(=O)(=O)N2CCCC2C(=O)NC2=NCCS2)cc1 (stereo unspecified)	0.61	0.24
30	Cn1nc(C(=O)NC(C)(C)C)c2ccccc21	0.31	-0.7
31	CCO[C@@H]1OC(C(N)=O)=C[C@H](c2ccccc2)[C@H]1CCCO	1.3	0.38
32	O=C(NCC(c1ccco1)N1CCOCC1)C1CCCCC1 (stereo unspecified)	1.4	1.4
33	O=C(COc1c(F)c(F)c(C(F)(F)F)c(F)c1F)Nc1ccc(N2CCOCC2)c(Cl)c1	0.01	0
34	CC(C)CCNC(=S)Nc1ccccc1F	2.2	-1.9
35	CC(C)(C)n1nc(-c2ccc(F)cc2)c2c(N)ncnc21	1.3	0.78
36	CC(C)c1ccccc1OCCCCN1CCCCC1	1.4	-0.13
37	COc1ccccc1NC(=O)CSc1n[nH]c(-c2ccccn2)n1	0.12	0.68
38	Nc1nc2ccccc2n1/N=C/c1ccc([N+](=O)[O-])s1	1.1	-1.9
39	COc1ccc2oc(-c3ccccc3[N+](=O)[O-])cc(=O)c2c1	3.4	-0.08
40	O=C(c1ccco1)N1CCN(c2ncnc3c2[nH]c2ccc(Br)cc23)CC1	2.5	0.89
41	Cc1ccc(C(C)C)c(OCc2ccc(C(=O)N/N=C/c3ccc(O)c(O)c3)cc2)c1	1	-0.22
42	Cc1cc(C(=O)OCC(=O)NCc2ccc3c(c2)OCO3)c2ccccc2n1	0.38	-0.33
43	Cc1cc2cc(NC(=O)c3ccco3)ccc2[nH]1	1.9	-0.68
44	C/C(=N\NC(=O)c1cc(-c2ccc(Br)s2)[nH]n1)c1ccncc1	0.27	2.1
45	Cn1nnc(NC(=O)c2ccccc2F)n1	0.99	0.34
46	CC(c1ccco1)N(C(=O)c1ccc(C#N)cc1)c1ccccn1 (stereo unspecified)	1.1	-0.16
47	CC(C)(C)c1ccc(-n2ncc3c2CCCC3NC(=O)CCN2CCCC2=O)cc1 (stereo unspecified)	1.5	0.4
48	COc1ccc(N(C(=O)c2cnsn2)C(C(=O)NC2CCCCC2)c2ccncc2)cc1 (stereo unspecified)	0.12	-1.7
49	Cc1ccc(CNC(=O)C2CCC(=O)N2Cc2ccc(C)cc2)cc1 (stereo unspecified)	0.95	-0.26
50	CC(C)Oc1ccc(CNC(=O)C2CCN(C(=O)N3CCOc4ccccc43)CC2)cc1	0.91	0.39

The list continues.
#	compound	KCNQ2 pot	KCNQ2 pot baseline
51	c1ccc(CNc2cnccn2)cc1	1.8	0.42
52	Cc1ccccc1CN(C)C1CCN(C)CC1	0.5	-1.7
53	CCCc1c(O)nc(SCC(=O)NCc2ccco2)[nH]c1=O	0.6	2
54	O=C(N/N=C/c1ccccn1)c1cccc(S(=O)(=O)Nc2ccccc2Cl)c1	1.4	-2.3
55	COCCN1CCN(C(=O)c2cc(COc3ccc(F)c(F)c3)on2)CC1	0.11	-0.85
56	Cc1nn(-c2ccccc2)c(C)c1/C=N/NC(=O)c1cc(-c2cccc3ccccc23)n[nH]1	0.02	0.57
57	COc1ccc(N/C(=N/c2nc(C)cc(C)n2)NC(=O)c2ccccc2)cc1	1.5	0.12
58	O=C(O)c1cc(S(=O)(=O)N2CCN(S(=O)(=O)c3ccccc3)CC2)ccc1Cl	1.7	0.67
59	CC(=O)C1=C(C)NC(SCC(=O)Nc2nccs2)=C(C#N)C1c1ccccc1Cl (stereo unspecified)	0.33	1.1
60	CCOc1ccc(S(=O)(=O)N(CC(=O)N/N=C/c2cccs2)c2ccc(C)cc2)cc1	0.07	-0.28
61	N=C(N)CCCOc1ccccc1-c1ccccc1	1.8	-0.02
62	COc1ccc(NC2CCCN(C(=O)c3ccc(C(C)=O)cc3)C2)cc1 (stereo unspecified)	0.39	-0.01
63	CCOCCCNC1=C(Cl)C(=O)c2ccccc2C1=O	3.3	-2.1
64	COCCCn1c(=S)[nH]c2c(sc3ccccc32)c1=O	3.9	-0.56
65	C=CCNC(=O)NC(=O)COC(=O)/C(C#N)=C/c1cc(C)n(CC(C)C)c1C	1.2	-1.3
66	CN1CCN(C(c2cccs2)c2nnnn2Cc2ccc(F)cc2)CC1 (stereo unspecified)	1.4	-3.6
67	COC(=O)c1cc(S(=O)(=O)n2nc(C)cc2C)c(Cl)cc1Cl	0.79	0.84
68	CC(=O)c1cccc(NC(=O)CCCN(C)S(=O)(=O)c2ccc(F)cc2)c1	0.16	1.3
69	O=C(Nc1sc2c(c1C(=O)NCCCO)CCCC2)c1ccccc1	1.5	-1.7
70	COc1cc(/C=N/Nc2nc(C)cc(C)n2)cc(OC)c1OC	0.33	-0.04
71	COC(=O)c1nc(NC(=O)c2ccccc2)n[nH]1	0.05	1.2
72	Cc1ccc(CNC(=O)c2cccnc2Sc2cccc(Cl)c2)cc1	1.5	0.02
73	O=C(NN1CCOCC1)c1cc(-c2cccs2)nc2ccccc12	1.2	-0.62
74	CCOc1ccc(OCc2ccc(C(=O)OCc3ccccn3)o2)cc1	0.3	2.7
75	CC(=O)Nc1c(C)cc(S(C)(=O)=O)cc1C	0.24	-2.3

No new results follow: entries from further up.
#	compound	KCNQ2 pot	KCNQ2 pot baseline
74	CCOc1ccc(OCc2ccc(C(=O)OCc3ccccn3)o2)cc1	0.3	2.7
75	CC(=O)Nc1c(C)cc(S(C)(=O)=O)cc1C	0.24	-2.3

Full records, looked up by structure. Values in the order: KCNQ2 pot	KCNQ2 pot baseline
Shown for `O=C(CNC(=O)c1ccccc1F)NCCOc1ccccc1Cl` = 0.14	-1.2
Shown for `Cc1nn(-c2ccccc2)c(C)c1/C=N/NC(=O)c1cc(-c2cccc3ccccc23)n[nH]1` = 0.02	0.57

Additional structures:
#	compound	KCNQ2 pot	KCNQ2 pot baseline
76	CC(=O)Nc1nc2n(n1)C(c1ccc(Cl)cc1)C=C(C)N2 (stereo unspecified)	2.3	-0.9
77	O=C1C2CC=CCC2C(=O)N1Cc1ccccc1Cl (stereo unspecified)	0.49	0.07
78	CCN(CC)c1ccc(NC(=O)C2CCCN(S(=O)(=O)c3cccnc3)C2)c(C)c1 (stereo unspecified)	0.34	-0.54
79	N#C/C(=C/c1cn(CC(=O)O)c2ccccc12)C(=O)NCc1ccccc1	0.84	1.1
80	Clc1ccc2c(c1)CNc1c(ncnc1N1CCOCC1)O2	0.04	0.08
81	O=C(Nc1ccccc1Cl)N1C2CCC1CC(O)(c1cccnc1)C2 (stereo unspecified)	0.78	0.86
82	CC(C)CN(C(=O)COC(=O)CCSc1ccc(F)cc1)c1c(N)n(Cc2ccccc2)c(=O)[nH]c1=O	0.32	2.4
83	Cc1cc2ccccc2c(=O)n1CC(=O)NCC(=O)N(C)Cc1ccccc1	0.11	0.04
84	CCCCOC(=O)CSC1=C(C#N)C(c2ccc3c(c2)OCO3)CC(=O)N1 (stereo unspecified)	0.21	-0.01
85	O=C(COC(=O)c1nc(Cl)ccc1Cl)c1ccccc1Cl	0.65	-1.1
86	O=C(Nc1c(C(=O)N2CCOCC2)cnn1-c1ccccc1)c1ccc([N+](=O)[O-])cc1	1.9	-0.01
87	CCn1nc(NS(=O)(=O)c2ccc([N+](=O)[O-])cc2)c2cc3cccc(C)c3nc21	0.72	-0.42
88	CC(c1ccccc1)C1CC(=O)N(c2ccccc2)C1=O (stereo unspecified)	0.66	0.01
89	CCOc1ccccc1OCC(O)CNC (stereo unspecified)	1.5	-0.8
90	COc1ccccc1CNC(=O)Nc1cccs1	0.77	0.07
91	COCc1[nH]nc2c1C(c1ccccc1Cl)C(C#N)=C(N)O2 (stereo unspecified)	0.02	-0.14
92	CCOC(=O)c1c(C)c(C(=O)N2CCN(c3ccc(F)cc3)CC2)c(C)n1C	0.73	-0.95
93	COCCN(C(=O)C(C)C)c1nnc(-c2ccc(C)cc2)s1	0.31	-0.47
94	NS(=O)(=O)c1ccc(CCNCC(=O)NC2CC2)cc1	1.3	-1.3
95	CC(C)(C)OC(=O)N1CCC[C@H]1C(=O)NCC1CCC(C(=O)O)CC1 (stereo partly specified)	0.18	-0.6
96	CCO[C@@H]1OC(C(=O)N2CCOCC2)=C[C@H](c2ccc(Br)cc2)[C@H]1CCCO	2	0
97	COC(=O)c1ccc(NC(=O)CCN2CCN(Cc3ccccc3)CC2)cc1	1.3	-2.5
98	c1ccc(-c2noc(-c3cccnc3)n2)nc1	1.5	1.3
99	COc1ccc(C2=NOC(C(=O)Nc3ccc(C(C)=O)cc3)C2)cc1OC (stereo unspecified)	0.02	0.94
100	Clc1ccc(CNCCC2=CCCCC2)cc1	0.42	-1.3

Some of these compounds in order of the KCNQ2 pot baseline value, smallest number first:
No.	canonical_smiles	KCNQ2 pot baseline
97	COC(=O)c1ccc(NC(=O)CCN2CCN(Cc3ccccc3)CC2)cc1	-2.5
89	CCOc1ccccc1OCC(O)CNC (stereo unspecified)	-0.8
86	O=C(Nc1c(C(=O)N2CCOCC2)cnn1-c1ccccc1)c1ccc([N+](=O)[O-])cc1	-0.01
79	N#C/C(=C/c1cn(CC(=O)O)c2ccccc12)C(=O)NCc1ccccc1	1.1
82	CC(C)CN(C(=O)COC(=O)CCSc1ccc(F)cc1)c1c(N)n(Cc2ccccc2)c(=O)[nH]c1=O	2.4

Further compounds.
#	compound	KCNQ2 pot	KCNQ2 pot baseline
101	Cc1ccc(C2C(C(=O)O)c3ccccc3C(=O)N2C)o1 (stereo unspecified)	0.54	0.52
102	O=C(OCc1ccccc1)c1cccnc1Cl	0.21	1.3
103	Cc1nn(C)cc1-c1cc(C(=O)O)c2ccccc2n1	0.35	0.02
104	COc1ccc(Nc2nc(N3CCN(S(=O)(=O)N(C)C)CC3)nc3ccccc23)cc1	0.17	-1.1
105	CCOc1cc(/C=N/NC(=O)CSc2nncn2C)ccc1OCc1ccccc1	0.23	0.55
106	CC(C)C(=O)Nc1ccc(C(=O)NNC(=O)c2cccs2)cc1	1.5	-0.25
107	Nc1nnc(COc2ccc(Br)cc2Br)s1	0.02	-0.8
108	CCC(=O)Oc1oc(-c2ccccc2)nc1C=Nc1ccccc1OC	1.7	1.5
109	CCC(=O)N1CCN=C1SCc1ccccc1Cl	0.31	-0.06

This is a subset, so the mix of outcomes need not match the whole.
